Kir21 block: blocks the mouse Kir2.1 inward-rectifier potassium channel; HEK293-Kir2.1, FluxOR thallium flux fluorescence; stronger effect = lower value; B-score at 10 µM; 310,000 compounds, 0.85% hits; AID 1672;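 active = fluorescence ratio B-score at or below minus 3 SD of library scores, with starting-brightness B-score within 2 SD, cut at about -4.2 in these data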;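 also: channel flux triggered by added potassium and thallium sulfate stimulus; B-score of peak minus minimum fluorescence over baseline after thallium stimulus; more negative B-score means stronger Kir2.1 block with less thallium influx; some compounds called inactive have numbers as strong as hits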
Target sequence (P35561 whole entry, looked up): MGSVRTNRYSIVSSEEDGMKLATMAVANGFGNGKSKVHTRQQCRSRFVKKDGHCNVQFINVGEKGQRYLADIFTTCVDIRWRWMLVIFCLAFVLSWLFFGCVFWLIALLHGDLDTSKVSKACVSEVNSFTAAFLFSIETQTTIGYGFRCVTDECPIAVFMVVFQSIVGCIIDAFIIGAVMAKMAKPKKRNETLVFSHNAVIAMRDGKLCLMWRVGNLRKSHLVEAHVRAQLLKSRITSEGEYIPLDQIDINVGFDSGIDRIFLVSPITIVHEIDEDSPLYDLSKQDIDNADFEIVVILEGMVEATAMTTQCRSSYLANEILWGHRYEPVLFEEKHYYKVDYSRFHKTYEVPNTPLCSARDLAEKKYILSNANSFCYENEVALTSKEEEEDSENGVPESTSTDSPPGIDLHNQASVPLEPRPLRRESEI
An asterisk follows results filed as active.

SMILES	Kir21 block
CCN(CC(=O)NCc1ccc(Cl)cc1)C(=O)CN1C(=O)NC(C)(c2ccccc2)C1=O (stereo not given)	0.56
Cc1cccc(C)c1OCc1nnc(SCC(=O)NCCc2ccccc2)o1	-0.19
CC(=O)C1=C(C)OC(N)=C(C#N)C1c1cccc([N+](=O)[O-])c1 (stereo not given)	-1.4
O=C(COc1ccc2ccccc2c1)NNC(=O)c1cnccn1	0.07
Cc1ccc(S(=O)(=O)N[C@H](C(=O)N2CCC3(O)CCCCC3C2)c2ccccc2)cc1 (stereo not given in full)	0.2
Cc1ccc(S(=O)(=O)CCSc2cccc(C(=O)O)c2)cc1	0.38
CCOC(=O)c1cnc2ccc(C)cn2c1=O	0.16
CCn1nc(C)c(CN2CCC(n3nccc3NC(=O)CCCc3ccccc3)CC2)c1C	-0.24
COc1ccc(C(c2nnnn2Cc2cccs2)N2CCN(c3ccccc3F)CC2)cc1OC (stereo not given)	-0.02
CCN(C(=O)c1coc(=O)c(Br)c1)c1ccc2c(c1)OCO2	-0.21
O=C1CCCN1CCC(=O)N1CCCC(N2CCN(c3ccccc3F)CC2)C1 (stereo not given)	0.35
O=C(CSc1nnc2ccc(-c3ccc(Br)cc3)nn12)NCC1CCCO1 (stereo not given)	0.45
COc1cc(/C=C2\SC(N)=NC2=O)ccc1OCC(=O)Nc1ccc(C)cc1	1.15
CN(CC(=O)Nc1ccccc1[N+](=O)[O-])Cc1ccc(Br)cc1	0.71
COc1ccc(OC)c2c1sc(=NC(=O)c1ccco1)n2C	-0.53
CC(C)(C)NS(=O)(=O)c1ccc2c(c1)oc(=O)c1cc(S(=O)(=O)NC(C)(C)C)ccc12	0.83
CCOc1ccc(C2C=C(c3ccc(F)cc3)Nc3ncnn32)cc1 (stereo not given)	-0.7
CCOc1ccc2nc(NCCCNS(=O)(=O)c3ccc(F)cc3)c(C#N)cc2c1	-0.34
COc1ccc(C(=O)NNC2=NS(=O)(=O)c3ccccc32)cc1OC	1.71
CC(=O)N1CCN(C(=O)c2cccc(NS(=O)(=O)c3ccc(Br)cc3)c2)CC1	-0.07
OCC1(CCOc2ccccc2)CCN(CC2=Cc3cc(Cl)ccc3OC2)CC1	1.29
CCCCN(C(=O)CSc1cc(C)c2ccc(OC)cc2n1)c1c(N)n(Cc2ccccc2)c(=O)[nH]c1=O	2.42
Nc1cccc(NC(=O)c2ccco2)c1	1.31
COc1ccc(-c2cc(C)no2)cc1S(=O)(=O)N1CCN(c2ccc([N+](=O)[O-])cc2)CC1	-0.92
CC1CCc2c(sc3nc(CN4CCOCC4)nc(Sc4ccccc4)c23)C1 (stereo not given)	1.21

Quoted from the listing.
Kir21 block, CN(CC(=O)Nc1ccccc1[N+](=O)[O-])Cc1ccc(Br)cc1 reads 0.71
Kir21 block, COc1ccc(C(=O)NNC2=NS(=O)(=O)c3ccccc32)cc1OC reads 1.71
Kir21 block, O=C(COc1ccc2ccccc2c1)NNC(=O)c1cnccn1 reads 0.07
Kir21 block, Cc1cccc(C)c1OCc1nnc(SCC(=O)NCCc2ccccc2)o1 reads -0.19
Kir21 block, CCN(C(=O)c1coc(=O)c(Br)c1)c1ccc2c(c1)OCO2 reads -0.21

4 of these compounds, reformatted:
Molecule: CCCCN(C(=O)CSc1cc(C)c2ccc(OC)cc2n1)c1c(N)n(Cc2ccccc2)c(=O)[nH]c1=O
  Kir21 block = 2.42
Molecule: Nc1cccc(NC(=O)c2ccco2)c1
  Kir21 block = 1.31
Molecule: COc1ccc(-c2cc(C)no2)cc1S(=O)(=O)N1CCN(c2ccc([N+](=O)[O-])cc2)CC1
  Kir21 block = -0.92
Molecule: CC1CCc2c(sc3nc(CN4CCOCC4)nc(Sc4ccccc4)c23)C1 (stereo not given)
  Kir21 block = 1.21

Further results:
SMILES	Kir21 block
Cc1ccc(S(=O)(=O)N/N=C(\c2ccccc2)c2cccnc2)cc1	-0.67
CC(O)[C@H]1CC[C@H]2[C@@H]3CC[C@H]4C[C@@H](O)CC[C@]4(C)[C@H]3/C(=N/O)C[C@]12C (stereo not given in full)	-1.55
COc1ccc2[nH]cc(CCNC(=O)c3ccc([N+](=O)[O-])cc3)c2c1	-1.32
COc1ccc(NC(=S)NC(NC(C)=O)C(Cl)(Cl)Cl)c([N+](=O)[O-])c1 (stereo not given)	1.6
Cc1ccc(-c2cc3nc(-c4ccccc4)cc(N)n3n2)cc1	0.22
Cc1cccc(Nc2nc(CC(=O)O)cs2)c1	2.56
Cc1ccsc1/C=N/NC(=O)CNC(=O)c1ccc(S(=O)(=O)N2CCOCC2)cc1	-0.82
C=CCn1c(=O)/c(=C2/Sc3ccccc3N2CC)s/c1=C1/C(=O)NN=C1C	0.12
COC(=O)c1c(NC(=O)c2ccco2)sc2c1CC(C)(C)NC2(C)C	-2.56
CC(C)Oc1cccc(NC(=O)c2cnccc2C(F)(F)F)c1	0.53
O=C1CSC(c2ccco2)N1 (stereo not given)	1.06
Cc1ccccc1N1CCN(C(=O)c2ccccc2NC(=O)C2CC=CCC2C(=O)O)CC1 (stereo not given)	-0.01
COc1cccc(N/C=C/c2onc(C)c2[N+](=O)[O-])c1	0.54
COc1ccc(C(=O)NCc2cn3ccsc3n2)cc1OC	-1.09
N#CC1=C(Nc2ccccc2)SC=C(c2ccc(F)cc2)N=C1N1CCOCC1	-1.69
CC1(C)Cc2nc3[nH]c(=S)[nH]c(=O)c3cc2CO1	-0.62
Cc1ccc(SCC(=O)N2CCC(C(N)=O)CC2)cc1	0.48
COc1cc(NC(=O)CN2CCN(c3ccccc3)CC2)c(C)cc1[N+](=O)[O-]	-0.77
COc1cccc(CNC(=O)C(=O)N2CCC3(CC2)OCCN3S(=O)(=O)c2ccc(C)cc2)c1	-0.06
Cc1ccc(OCC(=O)NNC(=O)c2cc(C)[nH]n2)cc1	-2.13
CCOC(=O)N1CCc2c(sc(NC(=O)c3ccc(S(=O)(=O)N4CCCC4)cc3)c2C#N)C1	0.89
Cc1nc(SCC(=O)N2CCCCC2)c2c(C)c(C)sc2n1	-0.95
COc1ccc(-c2c(C)c3ccc(O)cc3oc2=O)cc1OC	0.67
CC(Sc1nc(-c2ccc(F)cc2)cs1)C(=O)N1c2ccccc2CC1C (stereo not given)	-1.01
Nc1ccc2c(c1)sc1ccccc12	0.26

Laid out differently: 3 of the compounds above.
| Kir21 block | Molecule |
| --- | --- |
| -0.62 | CC1(C)Cc2nc3[nH]c(=S)[nH]c(=O)c3cc2CO1 |
| 0.48 | Cc1ccc(SCC(=O)N2CCC(C(N)=O)CC2)cc1 |
| -0.77 | COc1cc(NC(=O)CN2CCN(c3ccccc3)CC2)c(C)cc1[N+](=O)[O-] |

Next part.
SMILES	Kir21 block
CC(C)Cc1nnc(NC(=O)Cc2ccccc2[N+](=O)[O-])s1	0.21
O=C(Cc1ccc(Cl)cc1)Nc1cccnc1	1.52
CN(Cc1ccccc1)C(=O)c1[nH]cnc1C(=O)N[C@@H](Cc1ccccc1)C(=O)OCc1ccccc1	0.04
Cn1c(=O)c2c(nc(N3CCC(C(N)=O)CC3)n2CCSc2nc3ccccc3s2)n(C)c1=O	0.28
COc1cc(C(=O)Nc2ccc(N3CCOCC3)cc2)ccc1OCc1c(C)noc1C	4.29
COc1ccc(CN(C(C)=O)c2ccccc2C(=O)O)cc1	-1.2
COc1ccc(NC(=O)c2ccc(-n3cccn3)c([N+](=O)[O-])c2)cc1	0.13
COc1ccc(N(CC(=O)N/N=C/c2ccc(F)cc2)S(=O)(=O)c2ccccc2)cc1	-1.15
CCOc1cc(NS(=O)(=O)c2ccc(NC(C)=O)cc2)c(OCC)cc1NC(=O)c1cccs1	0.13
O=C(NCCCCC(NC(=O)c1ccc([N+](=O)[O-])cc1)C(=O)O)c1ccc([N+](=O)[O-])cc1 (stereo not given)	0.44
Cn1c(SCC(=O)c2ccccc2)nnc1-c1ccco1	-0.11
O=C(Nc1ccc(F)cc1F)NC1CC1	2.57
Cc1nc2ccc(NC(=O)CS(=O)(=O)c3ccccc3)cc2s1	0.16
Cc1c(NC(=O)CSCc2ccc(Br)cc2)c(=O)n(-c2ccccc2)n1C	0.06
CCOc1ccc(Cl)cc1CNCCNCC(C)O (stereo not given)	0.02
COc1ccccc1NC1=NC2(CCCC2)N=C(N)N1	-1.83
Cc1ccc(-n2ncc3c2CC(C)(C)CC3NC(=O)CCc2cnn(C)c2)cc1 (stereo not given)	-0.63
Cc1ccccc1-c1nsc(SCC(=O)c2ccc(Cl)cc2)n1	-0.07
CCS(=O)(=O)n1nc(-c2ccc(OC)cc2)nc1SC	-0.32
CC1(c2ccccc2)NC(=O)N(NC(=O)COC(=O)c2cc(Br)ccc2O)C1=O (stereo not given)	0.19
OCCC1CN(Cc2cccc(-c3ccco3)c2)CCN1Cc1ccsc1 (stereo not given)	-1.58
Cc1ccc2nc(SCC(=O)c3ccc(Cl)cc3)nc(=O)n2c1	1.01
CC(Oc1ccc(-c2ccccc2)cc1)C(=O)N/N=C/c1cccnc1 (stereo not given)	-0.12
Cc1ccc(/C=N/n2c(-c3ccc(Cl)cc3)n[nH]c2=S)s1	-1.19
Cc1ccc(NC(=O)Cn2nnc(C(=O)NCc3ccc4c(c3)OCO4)c2N)cc1	0.06

Next results:
SMILES	Kir21 block
CC(=O)C(C)Oc1ccc2c3c(c(=O)oc2c1C)CCCC3 (stereo not given)	0.49
COC(=O)Cc1nnc(NC(=O)c2ccccc2)s1	-1.36
O=c1[nH]n2cc(-n3cc([N+](=O)[O-])cn3)cnc2c1Br	-0.97
COc1nc(N(C)C)nc(-n2nnc(C(C)=O)c2C)n1	-0.95
CC(=O)NC1=NN(C(C)=O)C2(S1)C(=O)N(C(C)=O)c1ccc(C)cc12 (stereo not given)	1.33
Cc1cc(N2C(=O)NC(=O)CC2C)c(C)cc1C(C)C (stereo not given)	1.01
COc1ccc(CNC(=O)Nc2ccc(OC)cc2)cc1	0.02
C/C(=N\O)c1ccc(Cl)c(Cl)c1	0.35
C1CSC2(N1)C1CC3CC2CC(C1)C31NCCS1 (stereo not given)	-2.49
COc1cccc(/C=C2/NC(=O)N(CC(=O)Nc3ccc(C)cc3)C2=O)c1OCc1cccc(C(=O)O)c1	-1.08
Cc1ccc(C)c(C(=O)CN2C(=O)c3ccccc3C2=O)c1	-0.1
COc1ccc(NC(=O)CC2Nc3cc(C)c(C)cc3NC2=O)c([N+](=O)[O-])c1 (stereo not given)	1.56
Cc1ccc(C(=O)NCCCc2ccccc2)c(C)c1	-0.96
C=CCn1c(CCC(=O)Nc2ccc(C)c(Cl)c2)nnc1SCC(=O)Nc1ccccc1C	0.59
CSC(=Nc1cccc(C)c1)NC#N	0.56
COc1ccc2c(c1)c(=O)oc1cc(OCC(=O)N3CCC(C)CC3)ccc12	0.14
c1ccc2c(c1)Nc1cc3ccccc3cc1S2	-1.91
O=S1(=O)N=C(N/N=C/C=C/c2ccccc2)c2ccccc21	-0.32
CCN(Cc1cc(=O)[nH]c2ccccc12)C(=O)C(C)C	1.34
CCCc1nnc(SCC(=O)Nc2cc(C)on2)n1CCOC	2.02
CC1CCCC(NC(=O)c2ccc(F)c(S(=O)(=O)N3CCOCC3)c2)C1C (stereo not given)	0.73
C/C(=N\NC(=O)c1cc(C)[nH]n1)c1cccs1	-2.56
Cc1ccc(-n2c(C)nc3ccsc3c2=O)cc1	0.38
O=c1[nH]c(N2CCCCCC2)nc2ncn(Cc3ccccc3)c12	-0.81
COc1cc(/C=C(\C#N)C(=O)NCC2CCCO2)ccc1OCC(N)=O (stereo not given)	1.35

New compounds follow
SMILES	Kir21 block
NS(=O)(=O)c1ccc(NC(=O)CSC2=NC(=O)C(c3ccccc3)C(=O)N2)cc1 (stereo not given)	-0.74
O/N=C1/CCCCc2sccc21	-1.22
Cn1cc(CCNC(=O)CC2C(=O)NCCN2Cc2cccc(Oc3ccccc3)c2)cn1 (stereo not given)	-0.57
Cc1occc1C(=O)NNC(=O)C1CCCCC1	0.84
Cc1ccc(N(C)C(=O)N2CCN(S(=O)(=O)c3c(C)cc(C)cc3C)CC2)cc1	0.1
COC(=O)C(C)N1C(=O)S/C(=C/c2cc(C)n(-c3ccccn3)c2C)C1=O (stereo not given)	-1.44
CC1(C)CC2CC(C)(CN2C(=O)COC(=O)Cn2[nH]c(=O)c3ccccc3c2=O)C1 (stereo not given)	-0.15
COC(=O)c1ccc2c(=O)n(CC3CCCO3)c(SCC(=O)Nc3ccccc3OC)nc2c1 (stereo not given)	-0.49
O=C(CCN1C(=O)/C(=C/c2cccc(Br)c2)SC1=S)Nc1cccnc1	0.61
COc1ccc(Nc2nc(NCCO)nc(N3CCCC3)n2)cc1	2.11
O=C(CCCSc1nc2ccccc2s1)Nc1nccs1	0.17
CCNc1cc(S(=O)(=O)C(F)(F)F)ccc1N	1.35
CCCn1c(SCC(=O)Nc2cc(Cl)ccc2OC)n[nH]c1=O	-0.13
CCOc1ccccc1C1CC(=O)NC2=C1C(=O)CC(C)(C)C2 (stereo not given)	0.08
CC(=O)Cn1cnc2c(cnn2-c2ccccc2)c1=O	0.21
CC(NC(=O)c1ccco1)C(c1cccs1)N1CCN(c2ccccc2F)CC1 (stereo not given)	1.31
Cc1ccc(S(=O)(=O)Nc2csc(C)c2C(=O)O)cc1	-0.08
CCN(CC)S(=O)(=O)c1ccc2c(c1)nc(CCC(=O)Nc1ccc3c(c1)OCO3)n2C	-0.06
CCOc1ccc(OCC(=O)Nc2ccc(OC)cc2)cc1	0.52
Cc1cccc(NC(=O)c2ccc(S(=O)(=O)N3CCOCC3)cc2)n1	-0.77
COc1ccc(N2CCN(c3nc4ccccc4nc3NS(=O)(=O)c3ccccc3)CC2)cc1	0.29
C=C(C)CN(CC)c1nc(N)c2c(N)nc3c(c2c1C#N)CC(=O)N3C12CC3CC(CC(C3)C1)C2	-0.49
c1ccc(Nc2cccc(Nc3ccccc3)n2)cc1	1.28
CC(O)CNc1nc2c(c(=O)n(Cc3ccccc3)c(=O)n2C)n1C (stereo not given)	0.31
CCN1C(=O)c2ccccc2S(=O)(=O)c2ccc(C(=O)NC(C)C)cc21	-0.25
COc1ccc(C(=O)Nc2ccccc2C(=O)NC(Cc2ccc(O)cc2)C(=O)NNC(=O)c2ccccc2Cl)cc1 (stereo not given)	0.13
CCCCC(=O)Nc1ccc(C(=O)NCCCn2ccnc2)cc1	0

Screening data from PubChem.

Some of the compounds tested, and most or all hits are left out here.
